High-throughput results (PubChem BioAssay)
2A Renilla – Primary qHTS Assay for Foot and Mouth Disease Virus Antivirals against NCGC Sytravon and CBC Compound Libraries: Renilla Luciferase Signal; Potency, µM (doses to about 57.5 µM), for inactives: top-dose signal change, negative = less light; actives 0.32% (n = 120,000); HEK cells with a luciferase reporter of 2A StopGo recoding; active means well fitted falling curve with a large enough effect; inconclusive means small, poorly fitted or top-dose-only effect; inactive means no such curve, though single readings can be large or run the other way; also: nearly all actives have a fitted effect of over 55% in size; overnight with compound
2A firefly – Primary qHTS Assay for Foot and Mouth Disease Virus Antivirals against NCGC Sytravon and CBC Compound Libraries: Firefly Luciferase Signal; HEK cells with a luciferase reporter of 2A StopGo recoding; Potency, µM (doses to about 57.5 µM), for inactives: at the top dose signal change, negative = less light; actives 0.23% (n = 120,000); active = well fitted falling curve with a large enough effect; inconclusive = small, poorly fitted or top-dose-only effect; inactive = no such curve, though single readings can be large or run the other way; also: nearly all actives have a fitted effect of over 60% in size; overnight with compound
An asterisk follows results filed as active; ? = inconclusive; & = joins results of further samples; [ ] = another dose, or the depositor's remark. % is scaled to controls: 0 for no effect and ±100 for the full control effect; potency is read from the fitted curve at half-maximal effect.

SMILES,2A Renilla,2A firefly
O=C(COc1ccc(Cl)cc1)Nc1ccc2oc(-c3ccncc3)nc2c1,-3%,7%
CN(C)CCCNc1cc(N2CCN(C3CCCCC3)CC2)c2noc3c2c1C(=O)c1ccccc1-3,-13%,-19%
O=[N+]([O-])c1cc(-c2nc(-c3ccccc3)no2)ccc1NCc1ccco1,3%,30%[activator]
COc1ccc(-n2c(CC3C(=O)Nc4ccc(C)cc43)nc3ccccc3c2=O)cc1 (stereo not given),-10%&-13%,-16%&-5%
N#Cc1ccc(OC(=O)c2cc(-c3ccc(Cl)cc3)on2)cc1,-4%,2%
NCCCCCc1nnc(SCc2ccc(F)cc2)o1,-9%,5%
Cc1ccc(-c2csc(Nc3c(C)cccc3C)n2)cc1,-17%,?
COc1ccc(C(=O)Nc2ccc3oc(C)nc3c2)c(O)c1,18%,114%[activator]
CCCCC(Sc1nnc(C)n1-c1ccccc1C)C(=O)Nc1cc(C)on1 (stereo not given),29%,-6%
COCCNC(=O)CCc1ncc(-c2ccccc2Cl)o1,1%,33%[activator]
Cc1c(C)c2ccc(OCC(=O)NCc3cccnc3)cc2oc1=O,41%[activator],0%
Cc1sc(NC(=O)C2CCC2)c(C#N)c1C,19%,30%[activator]
CC(=O)N1CCCc2cc(S(=O)(=O)N3CCCC(C(=O)N4CCN(c5cccc(Cl)c5)CC4)C3)ccc21 (stereo not given),?,?
CSc1nc(Nc2cccc(C)c2)c(C#N)c(-c2ccccc2)n1,6%&3%,18%&-16%
O=C(NCCNc1ncccn1)NCc1ccccc1,-4%,?
COCc1c(C(=O)NC2=NCCS2)oc2ccccc12,10%,187%[activator]
CCOc1ccc(-c2nc(CNC(=O)Nc3ccc(C)c(Cl)c3)c(C)o2)cc1,-1%,26%
COc1ccc(NC(=O)CSc2nncn3c2cc2oc(C)cc23)c(OC)c1,29%,0%
COc1ccc(C(CN)c2c[nH]c3ccccc23)cc1 (stereo not given),22%,95%[activator]
COc1cccc(Oc2c(C)oc3cc(OC(=O)c4ccc5c(c4)OCO5)ccc3c2=O)c1,8%,4%
CC1=C(C(=O)OCC(Cl)(Cl)Cl)C(c2ccc3c(c2)OCO3)NC(=O)N1 (stereo not given),-1%,-13%
O=C(O)/C=C/c1cc(Cl)ccc1OCc1ccccc1,2%,22%
O=C(Nc1cccc(NC(=O)C2CC2)c1)C1CCCCC1,11%,-8%
CCn1c(CNC(=O)C23CC4CC(CC(C4)C2)C3)nnc1SCC(=O)Nc1ccc(C)cc1,3%,-12%
C=CCn1c(COc2ccc(C(C)(C)C)cc2)nnc1SCc1c(F)cccc1Cl,47%[activator],-22%
Cc1ccc(NC(=O)Cn2cc(C(=O)C3CC3)c3ccccc32)cc1C,6%,10%
O=c1c2cn[nH]c2nc(SCc2c(F)cccc2F)n1-c1ccc(Cl)cc1,-14%,-3%
CCn1nc(C(=O)Nc2cc(C(F)(F)F)ccc2N2CCOCC2)c2ccccc2c1=O,-11%,-15%
CCC1CCCCN1CCCNC(=O)c1[nH]c2ccccc2c1Sc1ccc(Cl)cc1 (stereo not given),-2%,-13%
O=C(O)c1cc(NC/C=C/c2ccccc2)ccc1N1CCOCC1,2%&2%,16%&-2%
CCn1cc2nc(SCc3ccccc3)n(Cc3ccc(C)cc3)c(=O)c2n1,-6%,-14%
CCOc1ccc(-c2nc(N)ncc2Oc2ccc(OC)cc2)c(O)c1,-12%,-8%
Cc1ccc(NC(=O)C2CCN(S(=O)(=O)c3c(C)noc3C)CC2)c(C)c1,-8%,-24%
NS(=O)(=O)c1ccc(N/N=C2/CC3CC=CC23)c([N+](=O)[O-])c1 (stereo not given),2%,0%
Cc1cccc(NC(=O)Nc2nnc(N(C)C3CCCCC3)s2)c1C,-10%,-5%
Cc1cc(C)c2sc(NC(=O)c3ccc(S(=O)(=O)N4CCCC4)cc3)nc2c1,-7%,-5%
Cc1oc(-c2ccccc2)nc1CNC(=O)Nc1ccccc1Cl,149%[activator],27%
CCCOC(=O)c1ccc(NC(=O)NC(c2cccc(F)c2)c2nccn2C)cc1 (stereo not given),-1%,-4%
CS(=O)(=O)c1ccc(C(=O)OCc2c(F)c(F)c(F)c(F)c2F)cc1,-5%[1.06 µM],-9%
CC(C)NC(=O)NC(=O)C(C)N(C)Cc1ccccc1 (stereo not given),10%,9%
Cc1ccc(Nc2nc(-c3ccccc3)cs2)cc1C,-9%,0%
COc1ccc(Br)cc1CNC(=O)c1ccc2c(c1)nc1n2CCC(C)C1 (stereo not given),13%,-15%
CC1=C(C(=O)Nc2cc(C)ccc2C)C(c2cccc3ccccc23)NC(=S)N1 (stereo not given),1%,-10%
CC(CNC(=O)C1CCN(Cc2cc3ccccc3n2Cc2ccccc2)CC1)c1ccccc1 (stereo not given),-2%,-20%
COc1ccc2c(CNc3ccc(N(C)C(C)=O)cc3)cc(=O)oc2c1,17%,36%[activator]
Cc1c(C(=O)N(Cc2nc3ccccc3c(=O)[nH]2)C(C)C)oc2ccc(Cl)cc12,-8%,-1%
Cc1ccc(NC(=O)C(C)C)cc1C,0%,10%
Clc1ccc(CNc2n[nH]c(-c3ccco3)n2)c(Cl)c1,0%,3%
O=C(Nc1ncn[nH]1)c1ccc(Cl)c(S(=O)(=O)N2CCCCC2)c1,0%,2%
COc1ccc(-c2oc3ncn4nc(-c5ccc(Cl)cc5)nc4c3c2-c2ccc(OC)cc2)cc1,-19%,-5%

Further structures
SMILES,2A Renilla,2A firefly
Cc1noc(C(C)N2CCC(c3ccnn3CCO)CC2)n1 (stereo not given),-8%,-8%
COc1ccccc1CNC(=O)c1ccc2c(c1)nc(C)n2-c1ccccc1OC,44%[activator],-2%
CCN(CC)c1nc2c(-c3cccc(Br)c3)nnn2c2ccccc12,1%,354%[activator]
CC(CCN1CCC(C(O)(c2ccccc2)c2ccccc2)CC1)Oc1cccc(Br)c1 (stereo not given),?,?
COc1cc(NC(=O)c2cc3ccc4cccnc4c3[nH]2)cc(OC)c1OC,28%,19%
Cn1cnc2c1c(=O)n(CC(=O)Nc1ccccc1C(=O)N1CCCCC1)c(=O)n2C,12%,0%
CCC(C)OC(=O)COc1ccc2c(=O)c(Oc3ccccc3Cl)coc2c1 (stereo not given),0%,2%
C=CCN(CC=C)C(=O)Nc1cccc(C(C)=O)c1,25%,-3%
CC(C)c1cc(C(=O)N2CCCc3ccccc32)c2ccccc2n1,75%[activator],27%
Cc1cc(C)c(NC(=O)C(=O)NCC(c2cccnc2)N2CCN(c3ccccc3F)CC2)c(C)c1 (stereo not given),-13%&-10%,-8%&6%
COc1ccc2[nH]c(=O)c(CN(C)C(=O)c3ccccn3)cc2c1,1%,14%
O=[N+]([O-])c1cccc(OC[C@@H](O)CN2CCC(C(O)(c3ccccc3)c3ccccc3)CC2)c1,-6%,-12%
CC(NS(=O)(=O)c1cccs1)c1ccccc1 (stereo not given),27%,-4%
CCc1ccc(S(=O)(=O)Nc2cc3c(C(=O)OC)c(COC)oc3c3ccccc23)cc1,83%[activator],0%
O=C(COc1ncnc2c(Cl)cc(Cl)cc12)Nc1ccc(Cl)cc1,-1%,-2%
COc1ccc(OC)c(CNC(=O)c2ccc3nc(C(C)C)oc3c2)c1,19%,0%
CCc1ccc(NC(=O)c2cc3nc(-c4ccc(C)cc4)cc(C(F)(F)F)n3n2)cc1,-4%,-11%
O=C(CCS(=O)(=O)c1nc(-c2cccs2)cc(C(F)(F)F)n1)Nc1ccc(F)c(Cl)c1,-5%,-17%
CN(CC(=O)NC(=O)NC1CCCCC1)Cc1ccc(C(F)(F)F)cc1,36%[activator],5%
Cc1sc(/N=C/c2c[nH]c3ccccc23)c(C#N)c1C,-9%,33%[activator]
O=C(c1cc2c(Cl)nc3ccccc3c2s1)N1CCCCC1,5%,64%[activator]
CCOc1ccc(S(=O)(=O)c2cn(Cc3ccccc3C)c3cc(OC)c(OC)cc3c2=O)cc1,25%,-20%
O=C(CCC1N=C2c3ccccc3N=C(SCc3ccccc3Cl)N2C1=O)NCc1cccs1 (stereo not given),-9%,-22%
COc1ccc(N2CCN(C(=O)c3noc4c3CCCCC4)CC2)cc1,37%[activator],68%[activator]
CN(C)C(=O)c1ccc(NC(=O)CSc2ccc(F)cc2)cc1,23%,0%
COc1ccc(CNC(=O)c2sc(NCCc3ccccc3)nc2C)cc1,-7%,12%
CCN1CCN(c2cc(-c3ccc(F)cc3)c3c(n2)CCCCCC3)CC1,11µM*,?
CCOC(=O)C1CCCN(C(=O)c2nn(-c3ccc(C)cc3)c(=O)n(C)c2=O)C1 (stereo not given),-10%,-11%
O=S(=O)(Nc1nc2n(n1)C(c1ccc(F)cc1)C=C(c1ccc(Cl)cc1)N2)c1ccccc1 (stereo not given),-5%,-7%
COCCCNCc1ccc(SC)cc1,-7%,-4%
Cc1ccc2[nH]cc(C=O)c2c1,18%,20%
O=C(Nc1ccccc1)N1CCN(CCc2ccncc2)CC1,3%,26%
Cc1ccc(C(=O)NC(Nc2ccc(C)cc2C)C(Cl)(Cl)Cl)cc1 (stereo not given),?,?
NC(=O)c1c(NC(=O)CN2CCN(C(=O)C3CCCO3)CC2)sc2c1CCC2 (stereo not given),-2%,1%
Cc1cccc(CCNC(=O)c2nc(-c3ccc(Cl)cc3)n3c2CCCCC3)c1,-18%,-17%
CCCCCn1nnnc1C1c2ccccc2OCC(=O)N1Cc1ccco1 (stereo not given),118%[activator],9%
Cc1cccc(Oc2nc(-c3ccccn3)nc3ccccc23)c1,?,2%
CCC(C(=O)NCCc1ccc(SC)cc1)n1nc(C)c2sc3ccccc3c2c1=O (stereo not given),189%[activator],-31%
Cc1c(NC(=O)Nc2ccc(Br)cc2F)sc2nc3n(c(=O)c12)CCC(C)CC3 (stereo not given),-11%,-9%
CCCCCCn1c(SCCC(C)C)nc2c1c(=O)[nH]c(=O)n2C,1%,-4%
CN(C)CCNC(=O)CN1CCN(C(C(=O)O)c2c[nH]c3cc(Br)ccc23)CC1 (stereo not given),-3%,1%
Cc1ccc(C)c(C(=O)NC2C3CC4CC(C3)CC2C4)c1 (stereo not given),74%[activator],29%
Cc1cccc2c1-c1sc(C(=O)NCCCN3CCN(c4cccc(Cl)c4)CC3)cc1CO2,-8%,1%
COc1ccc(N2CC(NC(=O)COc3ccc(F)cc3)CC2=O)cc1OC (stereo not given),-1%,41%[activator]
CSc1ccc(COC(=O)Cc2c[nH]c3ccccc23)cc1,28%,0%
CCCOc1ccc(-c2nonc2NC(=O)c2cc(OC)c(OC)c(OC)c2)cc1OCCC,46%[activator],16%
CC(=O)N1CCc2cc(CNC(=O)Nc3ccccc3C(F)(F)F)ccc21,-6%,57%[activator]
CCCCC(=O)OCc1cc(=O)n2nc(C3CCCCC3)sc2n1,1%,6%
O=C(N/N=C/c1cccs1)c1ccccc1Cl,20%,89%[activator]
COc1ccc2oc(C(=O)Nc3ccccc3OC)cc(=O)c2c1,-1%,2%

7 entries from above, sorted by SMILES length, low to high:
SMILES,2A Renilla,2A firefly
O=C(Nc1ccccc1)N1CCN(CCc2ccncc2)CC1,3%,26%
COc1ccc(CNC(=O)c2sc(NCCc3ccccc3)nc2C)cc1,-7%,12%
CCCCCCn1c(SCCC(C)C)nc2c1c(=O)[nH]c(=O)n2C,1%,-4%
CCN1CCN(c2cc(-c3ccc(F)cc3)c3c(n2)CCCCCC3)CC1,11µM*,?
CC(=O)N1CCc2cc(CNC(=O)Nc3ccccc3C(F)(F)F)ccc21,-6%,57%[activator]
CCC(C(=O)NCCc1ccc(SC)cc1)n1nc(C)c2sc3ccccc3c2c1=O (stereo not given),189%[activator],-31%
CN(C)CCNC(=O)CN1CCN(C(C(=O)O)c2c[nH]c3cc(Br)ccc23)CC1 (stereo not given),-3%,1%

Not a retest: an excerpt of the list.
SMILES,2A Renilla,2A firefly
O=C(COc1ccc(Cl)cc1)Nc1ccc2oc(-c3ccncc3)nc2c1,-3%,7%
CN(C)CCCNc1cc(N2CCN(C3CCCCC3)CC2)c2noc3c2c1C(=O)c1ccccc1-3,-13%,-19%

More compounds follow.
SMILES,2A Renilla,2A firefly
COc1ccc(Cl)cc1NC(=O)/C(C#N)=C/c1coc2ccccc2c1=O,12%,16%
O=C(CCC1N=C2c3ccccc3N=C(SCc3ccc(F)cc3)N2C1=O)NCc1ccc(F)cc1 (stereo not given),8%,-4%
COc1ccccc1NC(=O)NOCc1ccccc1,52%[activator],50%[activator]
COCCCNC(=O)CN(C)C(=O)c1cccc(C(F)(F)F)c1,-12%,0%
Cc1occc1-c1nnc(SC(C(=O)NCc2ccccc2)C(C)C)o1 (stereo not given),2%,-11%
CCc1cc(=O)oc2cc(C)cc(OCC(=O)NCCCN3CCOCC3)c12,12%,-2%
CCCN(CCC)CCCNC(=O)Cn1ncc2c3ccccc3n(Cc3ccccc3)c2c1=O,-8%,-6%
N#Cc1ccccc1NC(=O)CSC1=Nc2ccccc2C2CC=NN12 (stereo not given),12%,15%
CCN(CC)C(=O)Cn1cc(SCC(=O)Nc2cccc(C)c2)c2ccccc21,16%,-14%

Compounds as they come. Share with any hit: about 0.53%.
